# VDR inhibitor: Inhibitors of the vitamin D receptor (VDR): qHTS; Vitamin D3 receptor (Homo sapiens), P11473; VDR-SRC2-3 peptide fluorescence polarization, 2 h; Potency, µM, inactives show max response, negative = inhibition, actives largely listed as inhibitors; 400,000 tested, 0.93% active; AID 504847, 2011; active = well fitted inhibition curve with a large enough effect; inconclusive = small, poorly fitted or top-dose-only effect, or another doubt; inactive = no such curve, though single readings can be large or run the other way; note: series mostly up to about 120 µM
# Target sequence (P11473 whole entry, looked up): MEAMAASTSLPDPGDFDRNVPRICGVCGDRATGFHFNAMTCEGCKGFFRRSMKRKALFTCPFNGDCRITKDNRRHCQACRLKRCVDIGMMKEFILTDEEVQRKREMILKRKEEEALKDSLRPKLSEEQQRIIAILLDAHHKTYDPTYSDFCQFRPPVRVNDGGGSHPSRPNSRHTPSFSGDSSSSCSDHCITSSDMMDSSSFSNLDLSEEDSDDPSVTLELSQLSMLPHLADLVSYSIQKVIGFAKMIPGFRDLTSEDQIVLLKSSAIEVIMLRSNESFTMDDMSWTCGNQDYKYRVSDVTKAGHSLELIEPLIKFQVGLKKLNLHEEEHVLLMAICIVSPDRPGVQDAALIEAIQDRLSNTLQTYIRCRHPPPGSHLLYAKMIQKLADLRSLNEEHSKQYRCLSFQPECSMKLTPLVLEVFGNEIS
#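 The screen uses fluorescence polarization to detect compounds that interfere with recruitment of the SRC2-3 coactivator peptide to VDR; plates are read after 2 h at room temperature.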
# An asterisk follows results filed as active; ? = inconclusive; & = joins results of further samples; [ ] = dose if it differs, or a comment. % is set by controls: 0 for no effect and ±100 for the full control effect; potency is the fitted concentration of half-maximal effect.
SMILES,VDR inhibitor
O=C(CSc1nnc(CNC(=O)c2cccs2)o1)Nc1cccc(Cl)c1,2%
COc1ccc(NC(=O)/C(=C\c2cccs2)NC(=O)c2ccco2)cc1,-11%
O=C(NCc1n[nH]c(=S)n1-c1ccc(Cl)c(Cl)c1)c1cccs1,-1%
O=c1ccc(-c2ccc(S(=O)(=O)Nc3cccc(F)c3)o2)n[nH]1,-13%
COc1ccc(-c2nc3cnc(N4CCNCC4)nc3n(Cc3cccc(OC)c3)c2=O)cc1,54%[activator]
Cc1ccccc1-c1cc2nccc(-c3cc(Cl)ccc3O)n2n1,2%
COc1ccc(N(CC(=O)Nc2ccccc2C)S(=O)(=O)c2ccccc2[N+](=O)[O-])c(OC)c1,?
COc1ccc(S(=O)(=O)N/N=C\c2ccc(OC)c(COc3ccc(C)cc3[N+](=O)[O-])c2)cc1,-8%
O=C(O)C1(S(=O)(=O)c2ccc(Cl)cc2)CCC1,-5%
Oc1ccc(Cl)cc1CNc1nccs1,2%
COC(=O)c1ccc(NC(=O)c2ccc(NC(=O)c3ccco3)cc2)cc1,19%
COc1ccc(Cc2nc3ccc(C(=O)N(C)CC4COCCO4)cc3o2)cc1 (centres undefined),-1%
O=C(COc1ccc2ccccc2c1)NCC(=O)N/N=C/c1ccco1,-4%
CCCCOCC1CN(c2ccccc2)C(=O)CS1 (centres undefined),-2%
O=C(NCc1ccccc1Cl)C1CCCN(c2ncnc3onc(-c4ccc(F)cc4)c23)C1 (centres undefined),10%
Clc1cccc(N/N=C(\Cc2nc3ccccc3[nH]2)c2ccccc2)c1,1%
COc1ccc(NC(=O)C2CC(=O)N(C(C)C)C2)cc1 (centres undefined),4%
CCOc1ccccc1N1CCN(S(=O)(=O)c2ccc(Cl)s2)CC1,12%
O=C(NCCc1ccccc1)c1cc(Sc2cccc(Cl)c2)nc2ccccc12,4%
COc1cc(/C=N/Nc2nncc3ccccc23)cc(OC)c1OC,-27%
CC(C)(C)C(=O)NC1=NN(c2c(Cl)cc(Cl)cc2Cl)C(=O)C1,-20%
CC(C)Oc1ccc(/C=N/NC(=O)c2nnn(-c3nonc3N)c2CN(C)C2CCCCC2)cc1,-11%
Clc1ccccc1Cn1nc(-c2ccccc2)nc1-c1ccccc1,-6%
N#CCCn1c(=O)c(-c2ccc(Cl)cc2)nc2cnc(N3CCOCC3)nc21,-5%
O=C(COc1ncnc2ccccc12)NC1CCCC1,9%
O=C(NCCc1ccc(Cl)cc1)C1CCCN1C(=O)Nc1ccc(F)cc1 (centres undefined),4%
O=C(NCCC1=CCCCC1)C(=O)NCc1ccccc1Cl,16%
COc1cc(NC(=O)CSc2ccc(-c3sc(-c4ccccc4)nc3C)nn2)cc(OC)c1,5%
CNS(=O)(=O)c1cc(N)ccc1C,-14%
CN(C)S(=O)(=O)NC(=O)C1=C(N2CCCC2)COC1=O,-10%
Cc1ccc(CNC(=O)c2cc3c(C)nc4ccccc4c3o2)cc1,4%
CC(Nc1nc(-c2ccc(F)cc2)cs1)c1nc2cc(Cl)c(Cl)cc2n1CCCO (centres undefined),-12%
CCOC(=O)CSc1nc2ccccc2c(=O)n1-c1ccc(C)cn1,8%
CCOC(=O)c1ccc(NC(=O)c2ccc(CO)c(C(=O)NC3CCN(C(=O)OCC)CC3)c2)cc1,26%
O=S(=O)(NCCSc1ccccn1)c1ccc(Cl)cc1,8%
COc1ccc(CNC(=O)C2CCN(C(=O)c3csc(Nc4ccc(C)cc4)n3)CC2)cc1,-7%
CCC(=O)N1CCc2cc(Br)cc(S(=O)(=O)N3CCCC(C(=O)Nc4ccc(C)c(F)c4)C3)c21 (centres undefined),-5%
COc1cc2c(cc1OC)CN(Cc1cc(OC)c(O)c(OC)c1)CC2,16%
O=C(CSc1nnc(-c2ccc(Br)cc2)o1)N1CCN(C(=O)c2ccco2)CC1,7%
COC(=O)c1cc2c(N)c(C(=O)c3ccccc3)sc2nc1C(OC)OC,4%
Cc1cc(N2CCN(C(c3ccccc3)c3ccc(Cl)cc3)CC2)n2ncnc2n1 (centres undefined),-22%
O=C(Nc1nc(-c2ccc(F)cc2)cs1)c1cccnc1,16%
COc1ccc(CCNC(=O)CN2C(=O)C3(OCCCO3)c3ccccc32)cc1OC,4%
C#CC[N+](CC)(CC)CC#Cc1ccccc1,13%
CCCCN(C)CCNC(=O)c1ccc2c(c1)NC(=O)C(N1CCCCC1)S2 (centres undefined),3%
COc1ccc(NC(=O)C2CCCO2)c(OC)c1 (centres undefined),-15%
CCCCCCCNC(=O)C1CC(=O)N(C)C(=Nc2ccc(OC)cc2)S1 (centres undefined),1%
COc1ccccc1NC(=O)c1ccc(CN2C(=O)C(C)=C(c3ccc(C)c(C)c3)S2(=O)=O)cc1,9%
CCCN1C(=O)CC(C(=O)OC)=C1C,3%
NC(=O)C1CC2(C1)CC(C(N)=O)C2 (centres undefined),1%
COc1ccc(Nc2ncnc3c2nc2n3CCCC2)cc1Cl,9%
COc1ccc(N(CC(=O)Nc2ccc(F)c(F)c2)S(=O)(=O)c2c(C)n[nH]c2C)cc1,7%
C=CCNC(=O)c1nn2cccnc2c1Cl,0%
CC1=NN(C(N)=S)C(=O)C1N=Nc1ccccc1 (centres undefined),-17%
O=C(/C=C/c1cccs1)NC(=S)NNC(=O)Cc1cccs1,4%
O=C(NC1CCC(=O)N(CCSc2ccccc2)CC1)OCc1ccccc1 (centres undefined),-13%
CCOC(=O)N1CCN(Cc2nc(-c3ccccc3)no2)CC1,-16%
Cc1ccc(S(=O)(=O)N2CC(O)CC2C(=O)OCC(=O)c2ccccc2Cl)cc1C (centres undefined),-13%
O=C(Nc1ccccc1)c1cc2n(n1)C(C(F)(F)F)CC(C1CC1)N2 (centres undefined),-8%
CCOc1ccccc1CNC(=O)C1CCN(C(=O)c2sccc2-n2cccc2)CC1,2%

# Additional records.
SMILES,VDR inhibitor
CCOC(=O)C1=C(CN(CC)Cc2ccccc2)NC(=O)NC1c1ccc(OC)cc1 (centres undefined),4%
CCCc1[nH]nc2c1C(c1ccsc1)C(C#N)=C(N)O2 (centres undefined),-26%
COc1ccc(NC(=O)CCN2CCN(S(=O)(=O)c3ccc(C(C)C)cc3)CC2)cc1,-4%
COc1ccc(NC(=O)N2CCOCC2)cc1,-4%
COc1ccc(-c2nnc(SCc3csc(N)n3)n2C)cc1,1%
Cc1nc(NC(=O)c2csc3ccccc23)sc1C,-17%
COc1cccc(N(CC(=O)N2CCN(C)CC2)S(=O)(=O)c2ccc(C)cc2)c1,6%
COc1cccc(C(=O)N(Cc2nc(-c3cccc(C)c3)no2)C(C)C)c1OC,19%
COC(=O)c1ccc(Cn2nnc3ccccc32)cc1,3%
CC(C)(C)C(=O)Nc1ccccc1C(=O)Nc1ccccn1,14%
CCOC(=O)c1oc2cc(O)c(CC)cc2c(=O)c1-c1cscn1,1%
O=C(NCCNS(=O)(=O)c1cccc(C(F)(F)F)c1)c1cc(OCC(F)(F)F)ccc1OCC(F)(F)F,38%[activator]
CCn1c(CNc2ccc(Cl)cc2)nnc1SCCN1CCCCC1,-12%
CC(C)OCCCNC(=O)c1cn(C)c2ccc(S(=O)(=O)N(C)C3CCCCC3)cc2c1=O,-25%&-22%
CCn1cc(C(=O)N(C)c2ccc(C(C)C)cc2)c2cc(OC)c(OC)cc2c1=O,-1%
CC(C)CNC1=CC(=O)CC(c2ccco2)C1 (centres undefined),7%
COc1ccc(NC(=O)C2CCC(CNS(=O)(=O)c3ccc(Br)s3)CC2)c(OC)c1 (centres undefined),-8%
Cn1c(C(=O)NCCN2CCN(Cc3ccccc3)CC2)cc2c(=O)n(C)c3ccccc3c21,1%
C#CCOCCOCCOCCNc1nc(N2CCN(C(=O)CCCCCCCCCCNC(=O)[C@H](CCCCN)n3cc(CCCC(=O)O)nn3)CC2)nc(N2CCN(C(=O)CCCCCCCCCCNC(=O)[C@H](CCCN=C(N)N)n3cc(C[C@@H](C)CC)nn3)CC2)n1,13%
C=CC[C@H](CC(=O)OC(C)(C)C)C(=O)OC[C@@H]1CCCN1C(=O)[C@H](CC=C)CC(=O)N[C@H](CO)Cc1ccccc1,4%

# Exported with each value named: entries from further up.
CCCc1[nH]nc2c1C(c1ccsc1)C(C#N)=C(N)O2 (centres undefined)
  VDR inhibitor: -26%

COc1ccc(NC(=O)CCN2CCN(S(=O)(=O)c3ccc(C(C)C)cc3)CC2)cc1
  VDR inhibitor: -4%

# Next structures:
SMILES,VDR inhibitor
COc1ccc2[nH]cc(CCNc3cc(-c4c(C)noc4C)ncn3)c2c1,?
COc1ccc(N2C(=O)C(CC(=O)Nc3ccccc3)N(Cc3ccccn3)C2=S)cc1 (centres undefined),5%
C/C(CC(=O)Nc1cccc(F)c1)=N\NC(=O)C(=O)NC1CCCCC1,-16%
CCOCCCNC(=S)N1CCCN(c2nc3cc(C)c(C)cc3cc2C#N)CC1,-14%
CCOCN(C(=O)Cn1cnc2cc(C)c(C)cc21)c1c(C)cccc1CC,5%
CCCCOc1cccc(C(=O)N2CCN(CCc3ccncc3)CC2)c1,2%
COc1cc(NC(=O)CSc2nc(=O)n(CCCN3CCOCC3)c3c2CCC3)cc(OC)c1,-15%
CCN(CC)c1ccc(NC(=O)Cn2nnc(-c3cccc(OC)c3OC)n2)c(C)c1,14%
CC1CC(NC(=O)Cc2ccc(Br)cc2)CC(C)(C)C1 (centres undefined),?
CNC(=O)c1ccccc1NC(=O)c1ccc(C)c(S(=O)(=O)N2CCCCC2)c1,-9%
COc1cc(N(C)C)c([N+](=O)[O-])cc1C(=O)NC(C)CNc1ccc([N+](=O)[O-])cc1Cl (centres undefined),-9%
Cc1cccc(NC(=O)CNC(=O)c2ccc3c(c2)OCO3)n1,-12%
Cc1cc(N/N=C/c2ccccc2F)c2ccccc2n1,9%
Cc1ccc(C(=O)Nc2nccs2)s1,4%
Fc1ccc(N2CCN(c3ncnc4c3nc3n4CCCCC3)CC2)cc1,4%
CCOc1ccc(C(=O)Nc2cccc(-c3ccc4nncn4n3)c2)cc1,-29%
CC1CCCCN1CCCNC(=O)c1cc(Sc2ccc(Cl)cc2)nc2ccccc12 (centres undefined),4%
COC(=O)c1cccc(NC(=O)CCSc2ccc(Cl)cc2)c1C,-6%
COC(=O)c1ccc2c(c1)N(CC(=O)Nc1ccc(OC)c(Cl)c1)C(=O)c1ccccc1S2,1%
COc1ccc(C2C=C(c3ccccc3)Nc3nc(NC(=O)/C=C/c4ccc(F)cc4)nn32)cc1 (centres undefined),5%
CCn1c(=O)n(CC)c2cc(N3CCCC3)c(NC(=O)c3cc(Cl)ccc3OC)cc21,-2%
COC(=O)C(NC(=O)CCC(=O)N[C@@H](C(=O)OC)c1ccccc1)c1ccccc1 (some centres undefined),-24%
COCCn1c(SC(C(=O)Nc2cc(C)ccc2OC)c2ccccc2)nnc1-c1ccc(Cl)cc1 (centres undefined),-28%
COc1cccc(C2CC(C(F)(F)F)n3ncc(C(=O)Nc4c(C)n(C)n(-c5ccccc5)c4=O)c3N2)c1 (centres undefined),14%
CC(C)C(C)NC(=O)COC(=O)C1CCN(S(=O)(=O)c2ccc3c(c2)OCCO3)CC1 (centres undefined),-13%
CC1=C(C(=O)Nc2ccccc2C)C(c2cccnc2)n2nc(CCCO)nc2N1 (centres undefined),-5%
O=C(N/N=C/c1cc(Cl)c(O)c(Cl)c1)c1cc2c(ccc3ccccc32)o1,-19%
O=C(CN1CCN(Cc2ccc(F)cc2Cl)C1=O)NCCCN1CCOCC1,-19%
Cc1ccc(NC(=S)NC(NC(=O)N(C)C)C(Cl)(Cl)Cl)cc1 (centres undefined),8%
COc1ccccc1N1CCN(CCC(=O)Nc2cccc(F)c2)CC1,7%
CC(Cn1cncn1)NC(=O)c1cc(COc2cccc(C(F)(F)F)c2)on1 (centres undefined),16%
O=c1oc2c(CN3CCOCC3)c(O)ccc2c2c1CCC2,5%
COCc1nnc(NC(=O)c2cc(C(=O)OC)cc([N+](=O)[O-])c2)s1,1%
CCc1noc(C)c1C(=O)Nc1cc(S(=O)(=O)N2CCOCC2)ccc1OCC(F)(F)F,2%
O=C(CSc1nc2c([nH]c3ccccc32)c(=O)n1-c1ccc(Cl)cc1)NCc1ccccc1,-1%
COc1ccc(CC(=O)Nc2cccc(-c3nnc(-c4ccccc4)o3)c2)cc1OC,17%
CCOc1cc2c(cc1OC)C(NC(=O)c1ccco1)CC2=O (centres undefined),-6%
CCN(CC(=O)Nc1ccccc1C(F)(F)F)C(=O)CSCc1ccc(C)cc1,-3%
Cc1ccc(S(=O)(=O)NC(N)=NCCc2ccccc2)cc1C,-8%
Cc1ccc(C)c(NC(=O)CN2C(=O)COc3ccc(S(=O)(=O)N4CCCC4)cc32)c1,4%
CC(CN1CCCCC1)OC(=O)c1cccc(F)c1 (centres undefined),12%
O=C1CC(N(Cc2ccco2)C(=O)Nc2ccc(F)cc2)C(=O)N1c1ccc(F)cc1 (centres undefined),10%

# Three compounds out of the list, ordered by count of non-hydrogen atoms, rising:
SMILES,VDR inhibitor
CC(Cn1cncn1)NC(=O)c1cc(COc2cccc(C(F)(F)F)c2)on1 (centres undefined),16%
COC(=O)C(NC(=O)CCC(=O)N[C@@H](C(=O)OC)c1ccccc1)c1ccccc1 (some centres undefined),-24%
O=C(CSc1nc2c([nH]c3ccccc32)c(=O)n1-c1ccc(Cl)cc1)NCc1ccccc1,-1%

# Screens: PubChem, National Center for Advancing Translational Sciences (NCATS)

# Only part of the results is shown; rates above refer to the full screens.
